Source: PubChem
Rango complex inh: inhibitors of Rango-importin beta complex formation. Rango CFP/YFP FRET sensor + importin beta, 45 min. Q14974. actives 0.031% (n = 340,000). Potency, µM (highest dose often 92.2 µM), for inactives: at the highest dose inhibition of complex formation; active = rising FRET ratio curve, often small or poorly fitted; inconclusive = mostly compound fluorescence or quenching in the first reads; inactive = flat curves in all reads;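 further: potency means the concentration at half of the fitted maximal effect; 0% = DMSO wells and 100% = buffer wells lacking importin beta; nearly all actives have a fitted effect of over 15% in size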
Target sequence (Q14974 whole entry, looked up): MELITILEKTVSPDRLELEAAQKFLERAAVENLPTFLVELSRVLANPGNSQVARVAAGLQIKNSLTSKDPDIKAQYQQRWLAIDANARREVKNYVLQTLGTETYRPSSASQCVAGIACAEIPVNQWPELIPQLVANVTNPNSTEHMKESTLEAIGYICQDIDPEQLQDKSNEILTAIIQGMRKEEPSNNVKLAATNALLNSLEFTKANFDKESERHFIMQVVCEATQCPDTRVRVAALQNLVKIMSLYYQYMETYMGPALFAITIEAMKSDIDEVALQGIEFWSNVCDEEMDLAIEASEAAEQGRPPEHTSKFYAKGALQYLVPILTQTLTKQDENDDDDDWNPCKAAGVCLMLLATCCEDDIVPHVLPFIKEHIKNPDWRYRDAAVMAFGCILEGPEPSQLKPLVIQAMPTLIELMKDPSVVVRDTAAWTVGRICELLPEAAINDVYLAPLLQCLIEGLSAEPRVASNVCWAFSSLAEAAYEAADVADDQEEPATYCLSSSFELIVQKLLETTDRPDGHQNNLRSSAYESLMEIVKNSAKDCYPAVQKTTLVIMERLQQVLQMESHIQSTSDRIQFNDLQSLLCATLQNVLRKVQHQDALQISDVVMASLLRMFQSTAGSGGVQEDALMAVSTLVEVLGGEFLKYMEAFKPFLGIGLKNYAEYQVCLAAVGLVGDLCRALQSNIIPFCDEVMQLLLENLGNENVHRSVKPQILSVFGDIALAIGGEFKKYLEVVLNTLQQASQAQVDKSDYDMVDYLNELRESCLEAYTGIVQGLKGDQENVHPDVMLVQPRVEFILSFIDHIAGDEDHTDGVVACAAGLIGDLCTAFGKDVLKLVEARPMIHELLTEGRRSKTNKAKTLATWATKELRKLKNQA
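Inhibition scored from the CFP 486 nm/YFP 530 nm FRET ratio 45 min after adding 0.125 microM importin beta to 50 nM Rango biosensor preincubated 5 min with compound (room temperature, PBS with DTT, Tween-20, BSA). No-importin wells as positive control.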
Rango dissoc inh: inhibitors of RanGTP-induced Rango-importin beta complex dissociation | AID 540253 | Biochemical FRET Rango-importin beta, RanGTP-induced dissociation | Potency, µM (highest dose often 46.1 µM), for inactives: at the top dose activity change, negative = inhibition | actives 0.071% (n = 340,000) | O95149+P62826; active means falling FRET ratio curve, often poorly fitted, with flat reads before Ran was added; inconclusive means other falling curves, or compound fluorescence or quenching; inactive means flat or rising ratio curve;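 further: potency means the concentration at half of the fitted maximal effect; % of control where 0% means no effect; nearly all actives have a fitted effect of over 45% in size; -100% = wells without RanGTP and RCC1; the record marks most hits as doubtful in a second field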
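Recombinant Rango FRET biosensor (EYFP–snurportin 1 IBB–cerulean CFP10) at 0.1 uM premixed with 0.25 uM importin beta in PBS, 1 mM DTT, 0.02% Tween-20, 0.1% BSA. Compound added 5 min; RanGTP-RCC1 (0.6 uM Ran, 2 mM GTP, 0.2 uM RCC1) then triggers release, read at 45 min.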
miR-21 FLuc: miR-21 reporter, rising signal | HeLa miR-21 FLuc reporter, luciferase, 48 h | Potency, µM (series often up to 38.3 µM), for inactives: top-dose reporter change, positive = more light | AID 2288 | 340,000 tested, under 10 active; active = well fitted rising curve with a large enough effect; inconclusive = small, poorly fitted or top-dose-only effect; inactive = no such curve, though single readings can be large or run the other way;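 further: % of control where 0% means no effect; miR-21 action dims this reporter so a rising signal means less miR-21 action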
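HeLa cells stably expressing CMV-driven firefly luciferase with a downstream miR-21 binding sequence, endogenously expressing miR-21, were treated with titrations (up to about 40uM final) for 48 hours at 37 degree Celsius. Luciferase luminescence was read after lysis.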
GLA inh pH 4.5: alpha-galactosidase A (human) inhibition, pH 4.5 | P06280 | purified enzyme, 4-MU-alpha-Gal fluorescence, pH 4.5 | activity change, negative = inhibition, % at 105 µM | 230,000 tested, under 10 active | AID 1467; inconclusive = small, poorly fitted or top-dose-only inhibition, or a rising curve; inactive = flat fitted curve, though single readings scatter; no compound was filed as active;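 further: 0% = full activity with enzyme and -100% = basal without enzyme; dose as in the result columns while the protocol names 77 µM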
An asterisk follows results filed as active; ? = inconclusive; / = not tested or not shown. Only part of the results is shown; count on the stated rates, not on these rows.

nr	molecule	Rango complex inh	Rango dissoc inh
1	CCOc1ccc(NC(=O)CSc2nc3nc4c(cc3c(=O)n2CC)COC(C)(C)C4)cc1	1.7%	-6.3%
2	O=C(Nc1ccccc1C(=O)O)c1ccc(Br)o1	0.6%	4.6%
3	COCOc1ccc(-c2oc3c(C/C=C(\C)CCC=C(C)C)ccc(O)c3c(=O)c2OCOC)c(OCOC)c1	-0.1%	0.3%
4	CCc1nnc(NC(=O)c2ccc(COc3ccccc3C)o2)s1	-0.8%	19.4%
5	COc1ccc(CNC(=O)COC(=O)[C@H](Cc2c[nH]c3ccccc23)NC(=O)c2cccs2)cc1	3.6%	13.9%
6	CCNC(=S)N/N=C/c1ccc(-c2ccccc2)o1	1.4%	23.3%
7	CC(C)CC(=O)N1CCN(Cc2ccccc2Br)CC1	0.2%	10.3%
8	O=C(NCCC1=CCCCC1)c1ccc([N+](=O)[O-])cc1	-0.9%	-2.8%
9	O=C(Nc1ccc(C(=O)N2CCOCC2)cc1)c1cccc(Br)c1	-1.3%	0.6%
10	COc1ccccc1NS(=O)(=O)c1cccc(C(=O)N/N=C/c2c(C)nn(-c3ccccc3)c2N2CCCC2)c1	?	10.0%

nr	miR-21 FLuc	GLA inh pH 4.5
1	2.5%	-1.2
2	-47.4%	1.0
3	/	/
4	1.6%	/
5	3.2%	1.5
6	-36.5%	-0.7
7	-6.7%	/
8	-28.0%	-14.3
9	-24.8%	/
10	13.0%	-13.7

Rewritten with values under each structure: entries from further up.
Below each SMILES: Rango complex inh	Rango dissoc inh	miR-21 FLuc	GLA inh pH 4.5
#6 CCNC(=S)N/N=C/c1ccc(-c2ccccc2)o1
 : 1.4%	23.3%	-36.5%	-0.7
#7 CC(C)CC(=O)N1CCN(Cc2ccccc2Br)CC1
 : 0.2%	10.3%	-6.7%	/

Continued.
nr	molecule	Rango complex inh	Rango dissoc inh
11	O=C(Nc1ccc(Cl)cc1[N+](=O)[O-])c1ccc2c(c1)OCCO2	0.7%	-7.9%
12	O=C(CCS(=O)(=O)c1ccccc1)NC1CCCCC1	-0.7%	-1.9%
13	O=C(NCc1ccc2c(c1)OCO2)C1CC(c2cccc(Br)c2)=NO1 (centres undefined)	-0.4%	-1.4%
14	COc1ccc(-c2cc3onc(-c4c(Cl)cccc4Cl)c3c(=O)n2C)cc1	?	10.9%
15	COc1ccc(-c2nc3nc(SC)nn3cc2C)cc1F	4.9%	-11.3%
16	CN1/C(=C\C(=S)NC(=O)c2cccc(Br)c2)C(C)(C)c2ccccc21	?	?
17	COc1ccc(N2CC(C(=O)Nc3ccncc3)CC2=O)cc1 (centres undefined)	-2.1%	-3.2%
18	COc1ccccc1N1CCN(c2nc(N)c(C#N)c(CC#N)c2C#N)CC1	?	-10.5%
19	CCOC(=O)CSc1nnc(NC(=O)c2ccc3c(c2)OCO3)s1	-1.6%	3.9%
20	COc1ccccc1NC(=S)N1CCN(c2ccc(F)cc2)CC1	-1.1%	50.5%

nr	miR-21 FLuc	GLA inh pH 4.5
11	-45.0%	/
12	-38.0%	/
13	-6.8%	-1.5
14	/	/
15	2.5%	3.6
16	14.3%	-7.9
17	0.8%	/
18	-25.7%	1.7
19	7.0%	/
20	-5.3%	/

Next section:
nr	molecule	Rango complex inh	Rango dissoc inh
21	CCOC(=O)N1CCN(C(=O)COC(=O)c2cc(C)ccc2C)CC1	3.4%	3.4%
22	Cc1ccccc1C(=O)Oc1cc(N)n(S(=O)(=O)c2ccccc2)n1	-3.1%	-14.5%
23	COc1cccc2cc(C(=O)CS(=O)(=O)c3ccc(C(C)(C)C)cc3)c(=O)oc12	-2.5%	-13.2%
24	CC(C)=CCC1=C(OCC(=O)O)C(=O)c2ccccc2C1=O	4.5%	-0.3%
25	O=c1[nH]n2cc(-n3cc([N+](=O)[O-])cn3)cnc2c1Br	0.5%	12.6%
26	CCCCc1nc2cc(C(=O)N3CCC(OCCOC)CC3)ccc2o1	1.3%	3.3%
27	O=C(NC1CC1)c1nc(Cn2cc([N+](=O)[O-])cn2)no1	-2.7%	-9.5%
28	COC(=O)[C@H](C)NC(=O)NCc1ccc(S(N)(=O)=O)cc1	-0.2%	2.9%
29	CC1=CC(=O)CC2C1(C)CCC(C)C2(C)CCC(C)CC(=O)O (centres undefined)	-0.6%	3.8%
30	N#Cc1ccc(OCC(=O)NCC(c2cccs2)N2CCOCC2)cc1 (centres undefined)	-0.4%	13.3%

nr	miR-21 FLuc	GLA inh pH 4.5
21	/	/
22	-1.5%	-6.3
23	-1.9%	/
24	11.2%	1.7
25	-1.3%	-5.8
26	-32.3%	/
27	1.5%	/
28	-0.7%	-19.1
29	3.7%	3.5
30	0.3%	/

(listing goes on)
nr	molecule	Rango complex inh	Rango dissoc inh
31	CCC(=O)Nc1ccccc1-c1nnn(CC(=O)N2c3ccccc3CC2C)n1 (centres undefined)	-0.5%	13.8%
32	Cc1nc2ccc(S(=O)(=O)NCC(=O)N3CCOCC3)cc2s1	-3.9%	-9.8%
33	CC(=O)NC1C(=O)Nc2c(C)cc(C)cc21 (centres undefined)	0.1%	-2.6%
34	CCOc1ccc(C(=O)NCCCN(CC)CC)cc1	-7.1%	-8.5%
35	CCOC(=O)COc1ccc(S(=O)(=O)N2CCN(c3ccccc3F)CC2)cc1	0.4%	-12.9%
36	COc1ccccc1OCC(=O)Nc1ccccc1C(=O)N1CCCCC1	-2.6%	6.2%
37	CCN(CC(=O)Nc1cc(Cl)ccc1C)C(=O)C1CC(=O)N(Cc2ccccc2)C1 (centres undefined)	-1.5%	2.7%
38	O=C(NCC1COc2ccccc2O1)c1ccc(F)c(S(=O)(=O)N2CCOCC2)c1 (centres undefined)	0.8%	?
39	CCCCCN(C(=O)CCC(=O)OCCOc1ccc(OC)cc1)c1c(N)n(CCCC)c(=O)[nH]c1=O	2.4%	?
40	Cc1cc(N=Nc2ccc(Cl)cc2)cc(CN2CCCC2)c1O	2.6%	11.1%

nr	miR-21 FLuc	GLA inh pH 4.5
31	-2.6%	-2.9
32	-3.6%	-7.4
33	-8.2%	?
34	-1.1%	-4.4
35	-2.6%	-2.3
36	-4.4%	/
37	/	/
38	/	/
39	/	/
40	-21.0%	-4.2

Next records follow:
nr	molecule	Rango complex inh	Rango dissoc inh
41	O=C(c1ccc(-c2ccccc2)c(F)c1)C1CCCN(CCCn2cccn2)C1 (centres undefined)	-4.7%	2.5%
42	CCCCn1c(/N=C/c2ccc3c(c2)OCO3)nc2ccccc21	3.3%	12.9%
43	C=CCSc1nc2c(c(C3CC=CCC3)c1C#N)CCC2 (centres undefined)	-0.4%	-2.8%
44	c1ccc(-c2nnc3sc(CN4CCc5ccccc54)cn23)cc1	0.0%	6.9%
45	O=C(COc1cccc(C(F)(F)F)c1)NCCCN1CCCC1=O	9.6%	9.1%
46	Cc1cc(Br)cc(C)c1OCC(=O)NNC(=O)c1cccs1	1.0%	-8.3%
47	COc1ccc(C(=O)Nc2ccccc2)cc1NC(=O)c1cccs1	1.7%	-9.2%
48	CCOc1ccc(-c2nc(-c3ccccc3C)no2)cc1	/	/
49	CCOC(=O)c1ccc(NC(=O)C23CCC(C)(C(=O)O2)C3(C)C)cc1 (centres undefined)	2.7%	2.2%
50	COc1ccc(C(=O)c2c3ccc(C(F)(F)F)cc3[n+]([O-])n2CCCC(N)=O)cc1	-0.6%	0.1%

nr	miR-21 FLuc	GLA inh pH 4.5
41	18.4%	-14.5
42	-1.9%	0.5
43	-16.7%	-12.4
44	-5.2%	5.6
45	-3.8%	-3.9
46	0.0%	/
47	0.0%	/
48	-63.2%	-3.0
49	-39.0%	-7.6
50	/	/

(next part)
nr	molecule	Rango complex inh	Rango dissoc inh
51	CCOc1ccc2[nH]c(=O)c(C(c3nnnn3CC3CCCO3)N3CCc4ccccc4C3)cc2c1 (centres undefined)	6.2%	0.0%
52	Cc1nc2cc(Nc3nnc(-c4ccccc4)c4ccccc34)ccc2n1C	1.2%	-2.0%
53	Cc1ccc(-c2noc(/C=C/c3ccccc3)n2)cc1	-3.2%	-10.6%
54	NC(=O)c1ccc(NC(=O)CN2CCN(S(=O)(=O)c3ccc4c(c3)OCCO4)CC2)cc1	-0.4%	4.4%
55	CCC1Oc2ccccc2N(CC(=O)NC2CCCCC2C)C1=O (centres undefined)	-0.3%	3.2%
56	Cn1c(=O)c2c(nc(Oc3ccc4c(c3)OCO4)n2Cc2ccc(Br)cc2)n(C)c1=O	-0.4%	4.9%
57	CSc1nnc(-c2sc3cc(C(F)(F)F)cnc3c2-c2cccnc2)n1C	1.0%	1.2%
58	CCCCN(CC)C(=O)Cn1nc(Cc2ccncc2)c2ccccc2c1=O	1.4%	15.6%
59	Cc1ccc(S(=O)(=O)n2ccc(-c3ccc(OCc4c(F)cccc4Cl)cc3)n2)cc1	-0.5%	-10.1%
60	CCOc1ccc(N(CC(=O)NCc2ccc(F)cc2)C(=O)c2ccco2)cc1	2.3%	-4.9%

nr	miR-21 FLuc	GLA inh pH 4.5
51	-3.0%	-8.8
52	-25.2%	6.1
53	-28.1%	-23.1
54	/	/
55	-2.0%	/
56	2.5%	0.7
57	21.6%	-0.2
58	-8.8%	/
59	-20.8%	-1.0
60	3.4%	/

New compounds follow
nr	molecule	Rango complex inh	Rango dissoc inh
61	COc1ccc(CC(=O)NCC2CCCN(Cc3cccc(C(F)(F)F)c3)C2)cc1 (centres undefined)	2.3%	?
62	Cc1ccc(NC(=O)c2ccc3c(=O)n4c(nc3c2)CCC4)cc1S(=O)(=O)N(C)C	-4.2%	7.2%
63	CC(=O)Nc1cc(C(=O)N2CCN(C)CC2)ccc1Sc1ccc(C)cc1	-0.6%	-4.7%
64	CCOc1cc(N2CCOCC2)c(OCC)cc1NC(=O)c1[nH]c(C)c(C(C)=O)c1C	-0.3%	-2.1%
65	Cc1ccc(S(=O)(=O)N2c3ccccc3-c3c(ssc3=S)C2(C)C)cc1	-1.3%	-15.4%
66	CC1CCN(C2(O)C(=O)Nc3ccc(Br)cc32)CC1 (centres undefined)	0.2%	-8.6%
67	Cc1cc(NC(=O)c2ccccc2)ncc1NC(=O)c1ccco1	-1.4%	-18.2%
68	CCOC(=O)C1CCN(C(=O)CN2C(=O)c3cccnc3Oc3ccccc32)CC1	0.2%	-13.3%
69	CN1CCCN(C(=O)CNC(=O)c2ccc(Cl)cc2Cl)CC1	-3.5%	-1.2%
70	Cc1c(Cl)cccc1-c1ccc(/C=N/n2cnnc2)o1	2.3%	-14.1%

nr	miR-21 FLuc	GLA inh pH 4.5
61	2.3%	/
62	/	/
63	-8.2%	-3.5
64	/	/
65	?	-2.3
66	-7.9%	-1.5
67	-28.8%	-7.5
68	2.9%	/
69	/	/
70	-11.7%	-8.5

In the list so far, these have a COOH group.
nr	molecule	Rango complex inh	Rango dissoc inh
2	O=C(Nc1ccccc1C(=O)O)c1ccc(Br)o1	0.6%	4.6%
24	CC(C)=CCC1=C(OCC(=O)O)C(=O)c2ccccc2C1=O	4.5%	-0.3%
29	CC1=CC(=O)CC2C1(C)CCC(C)C2(C)CCC(C)CC(=O)O (centres undefined)	-0.6%	3.8%

nr	miR-21 FLuc	GLA inh pH 4.5
2	-47.4%	1.0
24	11.2%	1.7
29	3.7%	3.5

Continued:
nr	molecule	Rango complex inh	Rango dissoc inh
71	O=C(NCCOc1ccccc1F)c1cc([N+](=O)[O-])ccc1N1CCOCC1	3.4%	0.0%
72	CCc1ccc2oc(-c3ccc(OC)cc3)cc(=Nc3c(C)n(C)n(-c4ccccc4)c3=O)c2c1	0.7%	-3.3%
73	CCCCNC(=O)COC(=O)c1cc(C)nc2ccccc12	?	19.5%
74	Cc1cn(C2CCCCO2)c(=O)nc1NO (centres undefined)	-3.4%	15.6%
75	Cc1ccc2c(c1)C(=C(C#N)C#N)C(=O)N2CCN1CCCCC1	?	-7.9%
76	Cc1cc(C)nc(N2CCCC(C(=O)NNC(=O)c3ccncc3)C2)n1 (centres undefined)	1.4%	0.0%

nr	miR-21 FLuc	GLA inh pH 4.5
71	18.2%	/
72	7.9%	10.4
73	-1.5%	-2.0
74	/	/
75	-8.0%	-13.0
76	1.1%	6.0
